Assay outcomes deposited in PubChem BioAssay by Broad Institute.
Vaccinia stage: blocks a specific stage of Vaccinia orthopoxvirus infection; actives 0.01% (n = 89,000); Vaccinia-infected cells, mCherry/Venus stage reporter fluorescence; active compounds read low; some inactives read as strong as hits; activity change (mCherry), % (test concentration not listed);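 active = mCherry past -33% and 40 or more points under the early reporter, replicates agreeing; inconclusive = past -33% without that gap or agreement; tested in A549 cells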;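 also: scaled between vehicle wells and reference inhibitor wells; 23 nL library stock went into each well; one replicate is shown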
Vaccinia stage Venus: second read-out of Vaccinia stage, no call of its own (marks repeat the call); activity change (Venus), %; measured here: Venus reporter, other viral stage;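 negative = less Venus signal; first of two replicates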
An asterisk follows results filed as active; ? = inconclusive; / = no result given; & = joins results of further samples. A portion of the library; count on the stated rates, not on these rows.

Molecule	Vaccinia stage	Vaccinia stage Venus
C[C@@H]1CN([C@@H](C)CO)C(=O)Cc2cc(NS(=O)(=O)c3ccccc3)ccc2O[C@@H]1CN(C)Cc1ccc(Cl)c(Cl)c1	?	/
Cc1noc(C)c1S(=O)(=O)N(C)C[C@@H]1OCCCC[C@@H](C)Oc2ccc(N(C)C)cc2C(=O)N([C@@H](C)CO)C[C@@H]1C	8	3
COc1ccc2c3c(n(C)c2c1)[C@H](CO)N(Cc1ccccc1Cl)CC31CN(C(=O)CN(C)C)C1	-12	-11
N#C[C@H]1[C@H](c2ccc(C3=CCCC3)cc2)[C@H](CO)N1C(=O)C1CC1	8	3
C[C@@H]1CN([C@H](C)CO)C(=O)Cc2cc(N(C)C)ccc2O[C@H]1CN(C)Cc1ccc(C(=O)O)cc1	8	9
COc1cccc(NC(=O)N[C@@H]2C=C[C@H](CC(=O)N3CCCCC3)O[C@@H]2CO)c1	1	-1
Cc1noc(C)c1NC(=O)N(C)C[C@@H]1Oc2ccc(NS(=O)(=O)c3cn(C)cn3)cc2CC(=O)N([C@H](C)CO)C[C@H]1C	14	21
C[C@H]1CN([C@@H](C)CO)S(=O)(=O)c2ccc(-c3ccccc3)cc2O[C@@H]1CN(C)Cc1ccncc1	?	/
Cc1cc(C(=O)Nc2ccc3c(c2)C(=O)N(C)[C@H]2CC[C@@H](CC(=O)NCc4ccc(-c5ccccc5)cc4)O[C@H]2CO3)no1	?	/
Cc1noc(C)c1NC(=O)N(C)C[C@H]1Oc2c(NS(=O)(=O)c3ccc(Cl)cc3)cccc2C(=O)N([C@H](C)CO)C[C@H]1C	12	8
C[C@H](CO)N1C[C@H](C)[C@@H](CN(C)C(=O)Nc2ccc3c(c2)OCO3)Oc2ccc(NC(=O)Nc3ccc4c(c3)OCO4)cc2CC1=O	2	11
COc1ccc(NC(=O)Nc2ccc3c(c2)CC(=O)N([C@H](C)CO)C[C@@H](C)[C@H](CN(C)Cc2ccc(C(=O)Nc4ccccc4N)cc2)O3)cc1	3	-2
COc1ccc2c3c(n(C)c2c1)[C@@H](CO)NCC31CCN(C(=O)Nc2ccc(F)cc2F)CC1	-27	-17
CC(C)NC(=O)Nc1ccc2c(c1)CC(=O)N([C@@H](C)CO)C[C@@H](C)[C@H](CN(C)S(=O)(=O)c1cn(C)cn1)O2	18	8
COc1ccc(NC(=O)Nc2ccc3c(c2)C(=O)N([C@H](C)CO)C[C@@H](C)[C@H](CN(C)Cc2ccc(C(=O)O)cc2)OCCCC[C@H](C)O3)cc1	9	2
Cc1noc(C)c1S(=O)(=O)Nc1ccc2c(c1)C(=O)N([C@@H](C)CO)C[C@H](C)[C@H](CN(C)C(=O)Cc1ccccc1)OCCCC[C@@H](C)O2	1	1
C[C@H](CO)N1C[C@H](C)[C@@H](CN(C)Cc2ccc(Oc3ccccc3)cc2)Oc2ccc(NC(=O)Nc3ccccc3)cc2C1=O	-32	-24
O=C(Nc1ccc2c(c1)[C@H]1C[C@@H](CC(=O)N3CCc4ccccc4C3)O[C@@H](CO)[C@H]1O2)c1ccc2c(c1)OCO2	?	/
C[C@@H]1CN([C@@H](C)CO)C(=O)c2cc(NC(=O)C3CCCCC3)ccc2O[C@@H](C)CCCCO[C@@H]1CN(C)C(=O)c1ccncc1	8	1
CC(=O)N[C@@H]1CC[C@@H](CCNC(=O)C2CC2)O[C@H]1CO	7	7
O=S(=O)(N[C@H]1CC[C@H](CCn2cc(Cc3ccccc3)nn2)O[C@H]1CO)c1ccccc1F	-1	-7
CCCNC(=O)N[C@H]1CC[C@@H](CC(=O)NC2CCCCC2)O[C@H]1CO	4	3
CCS(=O)(=O)N1CCCCN2[C@H](CO)[C@H](c3ccc(C#Cc4ccccn4)cc3)[C@@H]2C1	17	12
COc1ccc2c3c([nH]c2c1)[C@H](CO)N(Cc1ccncc1)CC31CCN(C(=O)CN(C)C)CC1	14	16
C[C@H](CO)N1C[C@H](C)[C@H](CN(C)Cc2ccncc2)Oc2cc(-c3ccccc3)ccc2S1(=O)=O	-26	-31

(continued)
Molecule	Vaccinia stage	Vaccinia stage Venus
COc1ccc(-c2ccc3c(c2)[C@@H]2[C@@H](CCN2S(=O)(=O)c2ccccc2F)[C@H](CO)N3C)cc1	?	/
CC(=O)N1[C@@H]2c3ccc(/C=C/c4ccccc4)c(=O)n3C[C@H]1[C@H](CO)[C@H]2C(=O)NCC1CC1	4	-4
Cc1noc(C)c1NC(=O)Nc1ccc2c(c1)C(=O)N([C@@H](C)CO)C[C@@H](C)[C@@H](CN(C)Cc1ccc3c(c1)OCO3)O2	4	3
O=C(Nc1cc(F)ccc1F)N1C[C@@H]2[C@H](c3ccccc31)[C@H](CO)N2Cc1cccnc1	2	-9
CN1CCN(C(=O)C[C@H]2CC[C@@H]3[C@H](COC[C@@H](O)CN3CC3CC3)O2)CC1	5	4
CCC(=O)Nc1ccc2c(c1)C(=O)N(C)C[C@H](OC)[C@H](C)CN(C(=O)CC1CC1)[C@@H](C)CO2	8	7
C[C@H](CO)N1C[C@H](C)[C@@H](CN(C)C(=O)NC2CCCCC2)Oc2ccc(NC(=O)Cc3cn(C)c4ccccc34)cc2CC1=O	4	-2
CCC(=O)N1CC[C@@H]2[C@H]1c1cc(C#Cc3ccc(F)cc3)ccc1N[C@@H]2CO	-19	-13
C[C@@H]1CN([C@@H](C)CO)C(=O)Cc2cc(NS(=O)(=O)c3cccs3)ccc2O[C@H]1CN(C)Cc1ccc(C(=O)Nc2ccccc2N)cc1	23	13
COc1ccc(NC(=O)N[C@@H]2CC[C@H](CCn3cc(-c4ccccc4F)nn3)O[C@@H]2CO)cc1	20	14
CCCNC(=O)N1C[C@H]2[C@@H](c3ccccc31)[C@H](CO)N2C(=O)c1ccccc1	7	12
C[C@H]1CN([C@@H](C)CO)C(=O)c2cc(-c3cccc(F)c3)cnc2O[C@H]1CN(C)C(=O)C1CCC1	-1	-3
C[C@H]1CN([C@@H](C)CO)C(=O)c2cccc(NC(=O)C3CC3)c2O[C@@H]1CN(C)CC1CC1	1	-1
CC(C)NC(=O)N(C)C[C@@H]1OCCCC[C@@H](C)Oc2ccc(NC(=O)CCCN(C)C)cc2C(=O)N([C@@H](C)CO)C[C@H]1C	10	6
CC(=O)N(C)C[C@H]1Oc2ncc(-c3cccc(F)c3)cc2C(=O)N([C@H](C)CO)C[C@@H]1C	9	11
CCCNC(=O)C[C@H]1C[C@H]2c3cc(NC(=O)COC)ccc3O[C@H]2[C@@H](CO)O1	-2	6
COc1ccc(-c2cnc3c(c2)C(=O)N([C@H](C)CO)C[C@H](C)[C@H](CN(C)C(=O)CN(C)C)O3)cc1	23	7
C[C@@H]1CN([C@H](C)CO)C(=O)c2cccc(NS(=O)(=O)c3ccc(F)cc3)c2O[C@@H]1CN(C)Cc1ccc(C(=O)Nc2ccccc2N)cc1	-23	-22
C[C@H]1CN([C@@H](C)CO)S(=O)(=O)c2ccc(C#Cc3ccc(F)cc3)cc2O[C@H]1CN(C)C(=O)CN(C)C	?	/
COc1ccc(-c2ccc3n(c2=O)C[C@H]2[C@H](CO)[C@@H](C(=O)NCCN4CCCC4)N(C)[C@@H]32)cc1	7	6
COc1ccc2c3c(n(C)c2c1)[C@H](CO)N(C(=O)c1cccc(F)c1)CC31CN(C(=O)c2cccc(F)c2)C1	-34	-32
C[C@H]1CN([C@@H](C)CO)C(=O)c2cc(C3=CCCCC3)cnc2O[C@H]1CN(C)C(=O)c1ccccn1	20	12
C[C@@H]1CN([C@H](C)CO)C(=O)c2cc(N(C)C)ccc2O[C@H]1CN(C)S(=O)(=O)c1ccc(Cl)cc1	-5	-4
CC(C)NC(=O)N1CCCCN2[C@H](CO)[C@@H](c3ccc(C#C[C@H](C)O)cc3)[C@H]2C1	-1	3
CC(C)c1cn(CC[C@H]2CC[C@@H](NS(=O)(=O)c3ccccc3)[C@@H](CO)O2)nn1	4	4

The list goes on:
Molecule	Vaccinia stage	Vaccinia stage Venus
C[C@H]1CN([C@@H](C)CO)C(=O)c2cccc(NS(=O)(=O)c3ccc(F)cc3)c2O[C@H]1CN(C)C(=O)Nc1ccccc1	8	10
CC(C)NC(=O)N1C[C@H]2[C@@H](c3ccccc31)[C@@H](CO)N2C(=O)NC(C)C	7	7
C[C@@H]1CN([C@H](C)CO)C(=O)c2cc(NC(=O)CCC(F)(F)F)ccc2O[C@@H](C)CCCCO[C@H]1CN(C)Cc1ccncc1	5	5
CCCC(=O)N1CC2(CCN(C(=O)C3CC3)CC2)c2c(n(C)c3cc(OC)ccc23)[C@@H]1CO	5	1
CCC(=O)N(C)C[C@@H]1Oc2ncc(C#C[C@H](C)O)cc2C(=O)N([C@@H](C)CO)C[C@H]1C	19	14
C[C@@H]1CN([C@@H](C)CO)C(=O)c2cc(NC(=O)C3CCCCC3)ccc2O[C@@H](C)CCCCO[C@H]1CN(C)S(=O)(=O)c1ccc(Cl)cc1	-18	-14
C[C@@H]1CN([C@@H](C)CO)S(=O)(=O)c2ccc(Br)cc2O[C@@H]1CN(C)Cc1ccccn1	9	4
O=C(CCN1CCCCC1)NCC[C@H]1CC[C@H](NC(=O)c2ccc(F)cc2)[C@@H](CO)O1	6	4
CCCNC(=O)[C@@H]1[C@@H](CO)[C@@H]2Cn3c(ccc(C4=CCCCC4)c3=O)[C@@H]2N1Cc1ccccc1F	-21	-13
O=C(O)C[C@H]1C[C@@H]2c3cc(NC(=O)c4ccc5c(c4)OCO5)ccc3O[C@@H]2[C@@H](CO)O1	7	3
C[C@@H]1CN([C@H](C)CO)C(=O)c2cc(NS(=O)(=O)c3ccc(Cl)cc3)ccc2O[C@H]1CN(C)C(=O)Nc1ccc(F)cc1	15	2
COc1ccc(NC(=O)Nc2ccc3c(c2)C(=O)N([C@H](C)CO)C[C@H](C)[C@H](CN(C)S(C)(=O)=O)O3)cc1	7	0
Cc1ccccc1S(=O)(=O)NCC[C@H]1CC[C@@H](NC(=O)C2CCCCC2)[C@H](CO)O1	1	1
Cc1noc(C)c1NC(=O)Nc1ccc2c(c1)C(=O)N([C@@H](C)CO)C[C@H](C)[C@@H](CN(C)C(=O)Nc1ccc(F)cc1)OCCCC[C@H](C)O2	9	-3
C[C@@H]1CN([C@H](C)CO)S(=O)(=O)c2ccc(C#Cc3cccc(F)c3)cc2O[C@H]1CN(C)C	-21	-16
C[C@H]1CN([C@@H](C)CO)C(=O)c2cc(NC(=O)Nc3ccc(C(F)(F)F)cc3)ccc2O[C@@H]1CN(C)Cc1ccc2c(c1)OCO2	?	/
C[C@H](O)C#Cc1ccc([C@@H]2[C@H](CO)N3CCCCN(S(=O)(=O)c4ccccc4)C[C@@H]23)cc1	6	-10
C[C@H](CO)N1C[C@H](C)[C@@H](CN(C)S(=O)(=O)c2ccc(Oc3ccccc3)cc2)OCc2cn(nn2)CCCC1=O	5&-8	3&0
COc1ccc(-c2ccccc2[C@@H]2[C@@H](C#N)N(C(=O)C3CC3)[C@H]2CO)cc1	10	8
O=C(Nc1ccc(F)cc1)N[C@H]1CC[C@H](CCn2cc(C3(O)CCCC3)nn2)O[C@@H]1CO	-9	-9
CC(=O)N1[C@@H](CO)[C@H](c2ccccc2)[C@@H]1CN(CC1CCC1)C(=O)CN(C)C	9	10
COc1ccc(NC(=O)N(C)C[C@@H]2Oc3ccc(NC(=O)Cn4cnnn4)cc3CC(=O)N([C@@H](C)CO)C[C@H]2C)cc1	14	9
Cc1cccc(S(=O)(=O)N2CCCCN3[C@H](CO)[C@H](c4ccc(-c5cccnc5)cc4)[C@@H]3C2)c1	-6	-17
CO[C@@H](CN(C)C(=O)Nc1ccc(C(F)(F)F)cc1)[C@H](C)CN(Cc1ccccc1Cl)[C@H](C)CO	-33	-20
C[C@H]1CN([C@@H](C)CO)C(=O)c2cccc(N(C)C)c2O[C@@H]1CN(C)S(=O)(=O)c1ccccc1	6	-2

Profiles, quoted from the list.
CCC(=O)N(C)C[C@@H]1Oc2ncc(C#C[C@H](C)O)cc2C(=O)N([C@@H](C)CO)C[C@H]1C in the list: Vaccinia stage = 19; Vaccinia stage Venus = 14
Cc1ccccc1S(=O)(=O)NCC[C@H]1CC[C@@H](NC(=O)C2CCCCC2)[C@H](CO)O1 in the list: Vaccinia stage = 1; Vaccinia stage Venus = 1

Carrying on.
Molecule	Vaccinia stage	Vaccinia stage Venus
C[C@H](CO)N1C[C@H](C)[C@H](CN(C)Cc2ccccc2)Oc2c(NS(C)(=O)=O)cccc2C1=O	18	15
C/C=C/c1ccc(C2[C@H]3CNC[C@@H]2N3Cc2ccc(OC)cc2)cc1 (stereo partly specified)	-12	4
CCC(=O)N(C)C[C@H]1Oc2ncc(C#Cc3ccncc3)cc2C(=O)N([C@@H](C)CO)C[C@@H]1C	21&12	17&9
O=C(O)C1=C[C@H](c2coc3ccccc3c2=O)C[C@H](OCc2ccc(CO)cc2)O1	4	4
C/C=C/c1ccc2c(c1)O[C@@H](CN(C)C(=O)CC)[C@H](C)CN([C@@H](C)CO)S2(=O)=O	9	12

Retrieved by structure from above, two records:
Molecule	Vaccinia stage	Vaccinia stage Venus
C/C=C/c1ccc2c(c1)O[C@@H](CN(C)C(=O)CC)[C@H](C)CN([C@@H](C)CO)S2(=O)=O	9	12
O=C(O)C1=C[C@H](c2coc3ccccc3c2=O)C[C@H](OCc2ccc(CO)cc2)O1	4	4

An excerpt from above in order of number of heavy atoms, high to low.
Molecule	Vaccinia stage	Vaccinia stage Venus
COc1ccc(NC(=O)N(C)C[C@@H]2Oc3ccc(NC(=O)Cn4cnnn4)cc3CC(=O)N([C@@H](C)CO)C[C@H]2C)cc1	14	9
C[C@H](CO)N1C[C@H](C)[C@H](CN(C)Cc2ccncc2)Oc2cc(-c3ccccc3)ccc2S1(=O)=O	-26	-31
CC(=O)N[C@@H]1CC[C@@H](CCNC(=O)C2CC2)O[C@H]1CO	7	7
